Screens as filed in PubChem.
NS1 inh – qHTS Assay for Inhibitors of Influenza NS1 Protein Function; Potency, µM (titrated, usually from 46.1 µM), for the others: at the top dose activity, positive = more growth; S. cerevisiae slowed by influenza A NS1, growth recovery by OD600; AID 2326, 2010; hit rate 0.4% among 270,000; also: actives are rising curves; nearly all actives have a fitted effect of over 50% in size
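In this qHTS, NS1 from influenza A is expressed in budding yeast, where it slows growth. Cells are switched from glucose to 2% galactose medium (pH 6.0, -URA), treated with compound, and growth recovery is read at OD600.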
Cruzain noTriton – qHTS Assay for Promiscuous and Specific Inhibitors of Cruzain (without detergent); Cruzipain (Trypanosoma cruzi), P25779; purified cruzain, Z-FR-AMC fluorescence, no detergent; Potency, µM, without a hit: max response, negative = inhibition, hits mostly inhibitors; hit rate 2.3% among 200,000; active = well fitted curve in the direction sought with a large enough effect; inconclusive = small, poorly fitted or top-dose-only effect, or another doubt; inactive = no such curve, though single readings can be large; an effect the other way counts as inactive or inconclusive;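 also: plate controls were enzyme without inhibitor for no effect and buffer without enzyme for full effect; nearly all actives have a fitted effect of over 40% in size; top concentration of the series not given in the record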
Target sequence (P25779 123-467 limits assumed): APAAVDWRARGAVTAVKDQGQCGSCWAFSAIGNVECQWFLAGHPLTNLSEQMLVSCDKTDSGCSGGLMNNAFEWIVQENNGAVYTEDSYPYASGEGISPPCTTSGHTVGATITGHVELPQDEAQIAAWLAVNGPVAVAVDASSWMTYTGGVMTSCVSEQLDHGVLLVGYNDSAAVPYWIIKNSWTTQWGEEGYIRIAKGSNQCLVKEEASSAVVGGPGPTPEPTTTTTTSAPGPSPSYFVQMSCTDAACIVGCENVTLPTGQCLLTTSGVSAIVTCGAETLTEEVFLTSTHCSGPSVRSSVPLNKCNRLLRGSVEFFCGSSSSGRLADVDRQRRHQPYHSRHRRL
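Detergent-free condition (0.00005% Triton X-100) in acetate buffer pH 5.5 with DTT. 1.5 nM enzyme and compound were pre-mixed 15 min, then 2 uM Z-FR-AMC substrate added; reaction progress from fluorescence change between first and third reads (60 s).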
SARS PLP yeast – qHTS of Yeast-based Assay for SARS-CoV PLP; S. cerevisiae expressing SARS-CoV PLpro, growth rescue; control for the full effect not named in the record; Potency, µM (series often up to 32.9 µM), for the others: at the highest dose activity, positive = growth rescue; hit rate 0.19% among 330,000; AID 485353, 2010; also: 0% is about no effect; nearly all actives have a fitted effect of over 55% in size; growth read by luminescence after 48 h
RE007 growth inh – qHTS Assay for Inhibitors of the HIV-1 protein Vpr | S. pombe RE007 Vpr strain, BacTiter-Glo ATP luminescence, 24 h; control for the full effect not named in the record | Potency, µM (doses to about 92.2 µM), for the others: at the top dose activity change, negative = less growth | hit rate 0.21% among 360,000 | AID 651644, 2012; active = well fitted falling curve with a large enough effect; inconclusive = small, poorly fitted or top-dose-only effect; inactive = no such curve, though single readings can be large or run the other way;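 also: % is scaled to controls: 0 for no effect and ±100 for the full control effect; nearly all actives have a fitted effect of over 50% in size; the assay follows cell death caused by Vpr and the record does not say whether a fall means rescue or toxicity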
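Fission yeast RE007 carrying one integrated HIV-1 vpr copy, seeded at OD 0.01 in PMG+AL medium with 23 nL pinned compound. Grown 24 h at 30 degrees; viability read by BacTiter-Glo luminescence after 5 min.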
Lassa entry inh – qHTS for Inhibitors of binding or entry into cells for Lassa Virus; Potency, µM (titrated, usually from 37.9 µM), inactives show top-dose activity change, negative = inhibition, actives largely listed as inhibitors; hit rate 1.2% among 300,000; Lassa virus pseudotype entry inhibition, cell reporter; control for the full effect not named in the record; active means well fitted inhibition curve with a large enough effect; inconclusive means small, poorly fitted or top-dose-only effect, or effect the other way; inactive means flat fitted curve, though single readings scatter; tested in HEK293 cells; also: % is scaled to controls: 0 for no effect and ±100 for the full control effect; nearly all actives have a fitted effect of over 50% in size; luciferase read-out
Cruzain Triton – qHTS Assay for Promiscuous and Specific Inhibitors of Cruzain (with detergent); Potency, µM, for the others: max response, negative = inhibition, usual class: inhibitors; purified cruzain, Z-FR-AMC fluorescence, 0.01% Triton; hit rate 0.43% among 200,000; Cruzipain (Trypanosoma cruzi), P25779; AID 1478, 2009; active = well fitted curve in the direction sought with a large enough effect; inconclusive = small, poorly fitted or top-dose-only effect, or another doubt; inactive = no such curve, though single readings can be large; an effect the other way counts as inactive or inconclusive;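 also: plate controls were neutral wells for no effect and buffer without enzyme for full effect; nearly all actives have a fitted effect of over 40% in size; top concentration of the series not given in the record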
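Purified cruzain (1.5 nM final) was preincubated with compounds for 15 min at room temperature in 100 mM sodium acetate pH 5.5, 5 mM DTT, 0.01% Triton X-100. Reaction started with 2 uM Z-FR-AMC; AMC fluorescence change over 60 s gave activity.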
2A StopGo – High Throughput Screening for Foot and Mouth Disease Virus Antivirals. human cells with a luciferase reporter of 2A StopGo recoding; control for the full effect not named in the record. Potency, µM (highest dose often 57.9 µM), for the others: at the highest dose signal change, negative = less light. hit rate 1.2% among 410,000. AID 1159524, 2015; active = well fitted falling curve with a large enough effect; inconclusive = small, poorly fitted or top-dose-only effect; inactive = no such curve, though single readings can be large or run the other way; tested in HEK293T cells; also: % is scaled to controls: 0 for no effect and ±100 for the full control effect; nearly all actives have a fitted effect of over 45% in size; luciferase light after 4 h
MARV entry inh – qHTS for inhibitors of binding or entry into cells for Marburg Virus | AID 540276, 2011 | hit rate 1.8% among 300,000 | Marburg virus pseudotyped entry inhibition, cell reporter; control for the full effect not named in the record; about a third of the inactives were read at about 46 µM | Potency, µM (series often up to 37.8 µM), without a hit: at the highest dose activity change, negative = inhibition, usual class: inhibitors; active = well fitted inhibition curve with a large enough effect; inconclusive = small, poorly fitted or top-dose-only effect, or effect the other way; inactive = flat fitted curve, though single readings scatter; tested in HEK293 cells; about a fifth of its hits are not listed in these tables; also: % is scaled to controls: 0 for no effect and ±100 for the full control effect; luciferase read-out
Starred values were filed as active, the others as inactive; u = inconclusive; x = no result given; [ ] = remark or other dose. Unless noted, calls follow the shape of the dose curve; as a rule, active means well fitted rising curve with a large enough effect; inconclusive means small, poorly fitted or top-dose-only effect; inactive means no such curve, though single readings can be large or run the other way. Potency is read from the fitted curve at half-maximal effect. Compounds as they come. Share with any hit: about 4.7%.

SMILES	NS1 inh	Cruzain noTriton	SARS PLP yeast	RE007 growth inh	Lassa entry inh	Cruzain Triton	2A StopGo	MARV entry inh
CC(C)C(NC(=O)c1ccccc1F)C(=O)NCCc1ccccn1 (stereo not given)	-3%	x	3%	-4%	u	x	-3%	7%[46.1 µM]
O=C(NCCc1ccccc1)C1=CCN(S(=O)(=O)c2ccccc2)CC1	4%	x	1%	-1%	x	x	18%	x
CCOC(=O)c1ccccc1OC(=O)CS(=O)c1ccccc1[N+](=O)[O-] (stereo not given)	0%	x	-1%	4%	9%[46.1 µM]	x	1%	-1%[46.1 µM]
CCOC(=O)c1c(C)[nH]c(CCC(=O)Nc2ccc(C)c(F)c2)c1C	x	7%	x	x	-11%[46.1 µM]	-1.9%	0%	x
CSc1ccc(CCNC(=O)c2ccc(CS(=O)Cc3ccc(Cl)cc3)o2)cc1 (stereo not given)	10%	u	-10%	-6%	-15%[46.1 µM]	-6.3%	u	x
O=C(O)c1ccc(NC(=O)c2cn(-c3ccccc3)nc2-c2ccccc2)cc1	-2%	x	-1%	-6%	16%[46.1 µM]	x	12%	-7%[46.1 µM]
COC(CNC(=O)c1cc(-c2ccncc2)nc2ccc(S(=O)(=O)N3CCOCC3)cc12)OC	x	x	-2%	-6%	-10%	x	-8%	24%
COc1ccc(NC(=O)Nc2nc3ccccc3s2)cc1	-42%	x	-1%	-1%	1%[46.1 µM]	x	39%[activator]	u
COc1ccc(/C=N/NC(=O)c2c(C)nnn2-c2nonc2N)cc1OC	x	x	0%	-6%	1%	x	4%	-22%[46.1 µM]
O=C(COC(=O)C1CC1)Nc1ccc(S(=O)(=O)N2CCOCC2)cc1	x	x	2%	-16%	-1%	x	-1%	0%
Fc1ccc(Br)cc1C1C=C(c2ccc(Br)s2)Nc2ncnn21 (stereo not given)	-4%	3%	-5%	-16%	u	-25%	u	u
Cn1c(=O)c2c(ncn2CC(=O)Nc2cccc(S(=O)(=O)Nc3ccccc3F)c2)n(C)c1=O	5%	x	3%	2%	2%	x	34%[activator]	0%[46.1 µM]
O=C(NCCCn1ccnc1)/C(=C\c1ccc(Br)cc1)NC(=O)c1ccccc1	-11%	x	u	-13%	x	x	17%	x
Nc1ccc(C=C2C=Cc3ccccc32)cc1	x	x	x	-29%	-29%	x	13%	-1%
CCn1c(=O)c2sccc2n2c(CCCC(=O)NC3CCN(Cc4ccccc4)CC3)nnc12	6%	x	0%	-6%	x	x	-17%	x
CN(C(=O)COC(=O)c1cc(Br)c(Br)s1)C1CCS(=O)(=O)C1 (stereo not given)	-3%	5%	-6%	-10%	u	-3.6%	-20%	u
CC(=O)N1N=C(c2ccccc2)CC1c1cn(C)c2ccccc12 (stereo not given)	-16%	5%	17%	14%	-15%	-4.6%	20%	u
CC1(C)C2CCC1(C)C(OCC[N+](C)(C)CC(=O)OC1CCCCC1)C2 (stereo not given)	8%	8%	-5%	-15%	x	-3.2%	u	x
C=CCOc1ccc2oc(=O)cc(C)c2c1	-12%	-11%	2%	-5%	11%	-4.3%	13%	18%
CC(C)(C)CN1CCN(Cc2cc3ccccc3[nH]2)CC1CCO (stereo not given)	9%	x	-4%	-9%	x	x	-12%	x
CCc1cccc2sc(N3CCN(C(=O)c4cc5ccccc5cc4OC)CC3)nc12	x	-21%	x	x	2%[46.1 µM]	1.4%	-6%	x
COc1ccc(C(=O)Cc2cc(OC)c(OC)cc2[N+](=O)[O-])c(OC)c1	4%	8%	3%	9%	10%	-6.9%	x	0%
Nc1nonc1-n1nnc(C(=O)N/N=C/c2ccco2)c1-c1ccccc1	12%	x	0%	4%	-1%	x	-5%	9%[46.1 µM]
COc1ccc(-c2noc(-c3cc(C(C)C)[nH]n3)n2)cc1	x	14%	x	x	u	-5.4%	49%[activator]	x
CC(=O)NC(Cc1c[nH]c2ccccc12)C(=O)NCCc1ccccc1 (stereo not given)	4%	x	u	12%	x	x	-2%	x

Following part.
SMILES	NS1 inh	Cruzain noTriton	SARS PLP yeast	RE007 growth inh	Lassa entry inh	Cruzain Triton	2A StopGo	MARV entry inh
CCOCc1c(C(=O)NC2CCCCCC2)oc2ccccc12	-7%	x	-6%	-8%	-29%[46.1 µM]	x	-13%	u
Cc1cc(F)ccc1NC(=O)CCS(=O)(=O)c1cc2c(cc1C)NC(=O)CO2	x	6%	x	x	6%[46.1 µM]	-2.7%	-7%	x
CN(Cc1ccccn1)Cc1nc(Cc2ccccc2Cl)no1	-2%	x	1%	6%	u	x	1%	11%[46.1 µM]
CCc1ccc(OCC(=O)Nc2ccc3c(c2)OCCO3)cc1	-30%	x	0%	9%	-20%[46.1 µM]	x	25%	u
CC(NCC(=O)Nc1cc(Cl)cc(Cl)c1)c1ccccc1 (stereo not given)	-3%	x	-4%	-7%	x	x	-25%	x
COc1cccc(/C=C/C(=O)OCC(=O)Nc2cccc(S(=O)(=O)N(C)C)c2)c1	x	x	0%	23%	17%[46.1 µM]	x	-13%	1%[46.1 µM]
COc1ccc(-n2nc3ccc(NC(=O)c4c(OC)cccc4OC)cc3n2)cc1	x	-6%	x	x	-15%[46.1 µM]	4.6%	16%	u
O=C(CCCC(=O)OCC(F)(F)C(F)F)Nc1ccc(NC(=O)CCCC(=O)OCC(F)(F)C(F)F)cc1	u	-9%	11%	-13%	-6%	3.3%	x	7%
Cc1ccccc1NCc1nnc2n1CCCCC2	3%	x	0%	4%	x	x	-1%	x
N#C/C(=C\c1ccc(C(=O)O)cc1)c1ccccn1	x	x	-3%	-10%	u	x	1%	19%[46.1 µM]
Nc1nnnn1/N=C/c1cccs1	-5%	4%	-3%	6%	-3%	0.0%	-4%	28%
COc1cc(/C=C(\C#N)C(=O)Nc2cccc(C(=O)O)c2)ccc1OCc1ccc(F)cc1	9%	x	-1%	3%	0%	x	20%	u
COc1cc(CNCCc2ccc(S(N)(=O)=O)cc2)ccc1OCC(=O)N1CCCCC1	-1%	-11%	-8%	-12%	u	1.8%	-16%	-24%
CCN1CCN(c2ccc(S(=O)(=O)N3CCOCC3)cc2NC(=O)C(C)Oc2cccc(Cl)c2)CC1 (stereo not given)	x	x	3%	6%	u	x	-13%	u
CCc1cc(C(=O)Nc2ccc(OC)nc2)sc1C	x	x	-8%	u	-13%	x	30%	u
CC(=O)c1cc2c(cc1NC(=O)Cn1nc(-c3ccc(C)cc3)ccc1=O)OCO2	1%	x	1%	-9%	-19%	x	-4%	u
COc1ccc(F)cc1S(=O)(=O)NC1CCCCCC1	-4%	-12%	-5%	-9%	u	1.3%	46%[activator]	-19%
CCC(C)NC(=S)Nc1ccccc1OC (stereo not given)	41%	8%	u	28%	24%	3.9%	-29%	-21%
COc1cc(C)cc(C(=O)O)c1C1=C(O)c2cccc(O)c2C(=O)C1=O	6%	x	0%	295%	x	x	-19%	x
COc1ccc(NC(=O)CN(Cc2ccccc2)S(C)(=O)=O)cc1	-6%	8%	-7%	2%	-7%	-1.4%	-2%	12%
CCOc1ccccc1NC(=O)c1ccc(OCC)c([N+](=O)[O-])c1	-8%	0%	5%	5%	14%	0.3%	-22%	15%
N#CC1=C(N)Oc2c(ccc3ccccc23)C1c1ccsc1 (stereo not given)	1%	-21%	-13%	2%	-28%	-12%	-20%	u
CCOC(=O)N1CCC(NS(=O)(=O)c2cc3c(cc2C)NC(=O)CO3)CC1	-5%	3%	-7%	-3%	u	4.6%	21%	u
N#Cc1c(N2CCCCC2)nc(N)c2c(N)nc3c(c12)CC(c1ccccc1)O3 (stereo not given)	u	u	1%	-12%	u	-12%	3%	-14%
COc1ccc(Cl)cc1NC(=O)COC(C)=O	2%	x	-4%	-14%	x	x	12%	x

Next part.
SMILES	NS1 inh	Cruzain noTriton	SARS PLP yeast	RE007 growth inh	Lassa entry inh	Cruzain Triton	2A StopGo	MARV entry inh
Cn1c(CO)cnc1SCc1ccc(Cl)cc1	-7%	3%	-29%	9%	0%	-0.7%	32%[activator]	4%
CCn1c(-c2cccc(Br)c2)n[nH]c1=S	-8%	5%	5%	1%	3%	-3.3%	0%	15%[46.1 µM]
O=C(NC(=S)NNC(=O)c1ccco1)c1ccccc1	-84%	x	-5%	9%	x	x	14%	x
Cc1ccccc1OCC(=O)Nc1ccc(C(=O)OCc2cc(=O)n3ccsc3n2)cc1	x	-1%	x	x	26%[46.1 µM]	0.9%	u	x
O=C1CSC(=Nc2ccc(Cl)cc2)N1	-4%	x	1%	1%	x	x	1%	x
COc1ccccc1N1CCN(C(=O)c2ccc(N3CCCC3=O)cc2)CC1	u	1%	0%	3%	4%	-2.8%	-12%	-2%
Cc1ccc(C(=O)Nc2cc(-c3ccn[nH]3)c(C)n(N)c2=O)cc1	x	x	4%	-18%	-1%	x	7%	3%[46.1 µM]
O=C(Cc1csc(Nc2nc(=S)[nH]c3ccccc23)n1)N1CCN(c2cccc(C(F)(F)F)c2)CC1	-1%	x	0%	-13%	x	x	u	23%[46.1 µM]
CCC(C(=O)NCCCN1CCN(CCCNC(=O)C(CC)c2ccccc2)CC1)c1ccccc1 (stereo not given)	-50%	x	-6%	-7%	x	x	-27%	x
COCCNc1oc(-c2ccc(COc3ccc(OC)cc3)o2)nc1C#N	x	u	x	x	0%[46.1 µM]	-9.7%	-23%	17%[46.1 µM]
Cc1ccsc1/C=N/NC(=O)c1nnn(-c2nonc2N)c1CSc1ccccc1	3%	x	-10%	10%	x	x	3%	x
CSc1nc(N)cc(=O)[nH]1	5%	x	0%	-12%	x	x	-6%	x
O=C(NCCc1c[nH]c2ccccc12)/C(=C\c1ccco1)NC(=O)c1ccco1	-1%	1%	-4%	x	13%	-5.8%	-22%	2%
COc1ccc(S(=O)(=O)N2CCCCC2)cc1NC(=O)CCCOc1ccc(C)cc1	x	x	0%	-9%	-29%	x	-1%	u
